ID4 binder: binders of human ID4 protein, primary screen, biochemical, small molecule microarray, single point; Flag-ID4 binding, fluorescence F/B; actives 1.2% (n = 31,000); calls only;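 active = spot signal over background at p below 0.07 in all four prints; compounds were printed on slides so no solution concentration is given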;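 also: a binder raises fluorescence above local background on the spot; about 2 pmol printed per array spot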
Target sequence (P47928 whole entry, looked up): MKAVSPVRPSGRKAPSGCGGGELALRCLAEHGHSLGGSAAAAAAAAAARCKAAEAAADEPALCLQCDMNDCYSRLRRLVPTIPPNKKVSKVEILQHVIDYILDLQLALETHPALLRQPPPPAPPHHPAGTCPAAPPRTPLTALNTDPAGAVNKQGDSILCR
Calls only; i = inactive. The list is partial. The share of hits here may be higher or lower than overall.

SMILES	ID4 binder
COc1cc2c(cc1OC)-c1c(oc3c4c(ccc3c1=O)OC(C(C)C)C4)CO2 (stereo not drawn)	i
CSc1nc(NC(C)C)nc(NC(C)C)n1	i
CC(C)C[C@H]1C(=O)N2CCC[C@H]2[C@]2(O)O[C@](NC(=O)[C@@H]3C=C4c5cccc6[nH]cc(c56)C[C@H]4N(C)C3)(C(C)C)C(=O)N12	i
Cc1cccnc1-n1c(CN2C(=O)c3ccccc3C2=O)nc2ccccc2c1=O	i
COc1cc2c(cc1OC)-c1c(OC)c(OC)c(N)c3c1[C@H](C2)N(C)CC3	i
CC1=NCCc2c1[nH]c1cc(O)ccc21	i
COCc1cc(OC(=O)N(C)C)nc(COc2ccc(Cl)cc2)n1	i
CCc1cccc(CC)c1N(COC)C(=O)CCl	i
C[C@H]1C(=O)O[C@@H]2CCN3CC=C(COC(=O)[C@](C)(O)[C@]1(C)O)[C@H]23	i
CC(C)c1ccc2c(c1O)CC[C@H]1C3=C(CC[C@]21C)C(=O)OC3	i
CNC(=O)O/N=C(/C)SC	i
CC(=O)[C@H]1CC[C@H]2[C@@H]3CC[C@H]4C[C@H](O)CC[C@]4(C)[C@H]3CC[C@]12C	i
Cc1ccccc1OCCCn1cc(C(=O)C(C)(C)C)c2ccccc21	i
COc1ccn(C)c(=O)c1C#N	i
C=CC1CN2CCC1CC2C(OC(=O)c1ccco1)c1ccnc2ccccc12 (stereo not drawn)	i
O=C1CSC(c2ccccc2Cl)c2cc(Cl)ccc2N1 (stereo not drawn)	i
COc1ccc(CCNCc2cc(Cl)cc(Cl)c2OC)cc1OC	i
CCCN1CCO[C@@H]2c3cc(O)ccc3OC[C@H]21	i
CCC(C)C1NC(=O)C2CCCN2C(=O)C(CC(C)C)OC(=O)CCNC(=O)C(C)N(C)C(=O)C(C(C)C)N(C)C1=O (stereo not drawn)	i
CN1C[C@H](CO)C=C2c3cccc4[nH]cc(c34)C[C@H]21	i
Brc1cccc(CN2CCN(Cc3cccc(Br)c3)CC2)c1	i
CCCN1CCC[C@@H]2Cc3[nH]ncc3C[C@H]21	i
c1ccc2nc(N3CCNCC3)ccc2c1	i

Reformatted: results already given
Cc1ccccc1OCCCn1cc(C(=O)C(C)(C)C)c2ccccc21
  ID4 binder: i
COc1ccn(C)c(=O)c1C#N
  ID4 binder: i
C=CC1CN2CCC1CC2C(OC(=O)c1ccco1)c1ccnc2ccccc12 (stereo not drawn)
  ID4 binder: i
O=C1CSC(c2ccccc2Cl)c2cc(Cl)ccc2N1 (stereo not drawn)
  ID4 binder: i

Pulled by compound from the list above, 6 records:
SMILES	ID4 binder
CNC(=O)O/N=C(/C)SC	i
COCc1cc(OC(=O)N(C)C)nc(COc2ccc(Cl)cc2)n1	i
CC(C)C[C@H]1C(=O)N2CCC[C@H]2[C@]2(O)O[C@](NC(=O)[C@@H]3C=C4c5cccc6[nH]cc(c56)C[C@H]4N(C)C3)(C(C)C)C(=O)N12	i
O=C1CSC(c2ccccc2Cl)c2cc(Cl)ccc2N1 (stereo not drawn)	i
CC(=O)[C@H]1CC[C@H]2[C@@H]3CC[C@H]4C[C@H](O)CC[C@]4(C)[C@H]3CC[C@]12C	i
CCC(C)C1NC(=O)C2CCCN2C(=O)C(CC(C)C)OC(=O)CCNC(=O)C(C)N(C)C(=O)C(C(C)C)N(C)C1=O (stereo not drawn)	i
